YopH PTP inh: YopH (Yersinia) phosphatase inhibition; fluorescence Ex485/Em525; inhibition, %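 (about 10 µM by stock and volumes)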; 0.16% of 140,000 active;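 active = inhibition of 50% or more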;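 also: controls were vehicle for no effect and minimum signal wells for full effect; inactives centre near -20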
Arbovirus anti: antivirals against arbovirus infection; arbovirus infection cell-based antiviral screen; 0.37% of 200,000 active; inhibition, % at 10 µM;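 active = inhibition from about 30%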;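 also: bluetongue infection of BSR cells; cell survival read as ATP light after 72 h; 0% = infected wells without compound and 100% = uninfected wells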
Mtb betalactam: beta-lactam sensitization of Mtb H37Rv. M. tuberculosis H37Rv growth with meropenem, percent inhibition; hits of this screen are not shown here. inhibition, % at 25 µM. 0.27% of 330,000 active;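 active = about 74% or more and at least 40 points above the plate without the antibiotic, then above 30% in a dose series; inconclusive = first-round hits that could not be retested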;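 also: growth measured after seven days incubation then overnight dye step; 0% = bacteria only wells and 100% = bacteria with antibiotic; twin plates without the antibiotic show which effects depend on it; some results filed as inactive read as strong as hits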
RecA splice inh: inhibitors of M. tuberculosis RecA intein splicing. cell-free RecA intein splicing, fluorescence. inhibition, %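 (about 9 µM by stock and volumes)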. 0.75% of 290,000 active; in the data active = inhibition above about 30%; inconclusive = no clear call, values can overlap the other calls;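 also: 0% = vehicle wells and 100% = reference inhibitor control wells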
Target sequence (P9WHJ3 whole entry, looked up, canonical isoform): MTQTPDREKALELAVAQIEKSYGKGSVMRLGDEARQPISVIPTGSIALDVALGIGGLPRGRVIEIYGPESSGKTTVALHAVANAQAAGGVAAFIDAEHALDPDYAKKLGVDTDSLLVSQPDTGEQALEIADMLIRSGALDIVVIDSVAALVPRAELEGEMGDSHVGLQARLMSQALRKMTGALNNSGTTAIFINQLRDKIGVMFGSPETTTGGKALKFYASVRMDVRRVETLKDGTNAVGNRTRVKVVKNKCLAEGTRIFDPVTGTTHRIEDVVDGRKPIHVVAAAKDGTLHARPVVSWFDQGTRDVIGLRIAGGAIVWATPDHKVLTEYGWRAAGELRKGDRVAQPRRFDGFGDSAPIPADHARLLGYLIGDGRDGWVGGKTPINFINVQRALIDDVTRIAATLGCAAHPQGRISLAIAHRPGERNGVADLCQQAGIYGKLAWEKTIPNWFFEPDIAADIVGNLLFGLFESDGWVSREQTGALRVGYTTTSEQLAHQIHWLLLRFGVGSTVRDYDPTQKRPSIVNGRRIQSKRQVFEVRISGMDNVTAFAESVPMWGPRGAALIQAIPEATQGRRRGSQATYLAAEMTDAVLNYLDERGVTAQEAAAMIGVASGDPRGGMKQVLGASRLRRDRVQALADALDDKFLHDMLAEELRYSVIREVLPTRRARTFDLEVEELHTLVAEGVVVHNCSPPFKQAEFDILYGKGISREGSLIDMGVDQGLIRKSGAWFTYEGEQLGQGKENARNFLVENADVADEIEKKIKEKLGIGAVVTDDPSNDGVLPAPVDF
Mtb H37Rv: M. tuberculosis H37Rv growth inhibitors, H37Rv strain (AID 1626); one-dose inhibition, % at 10 µM; IC50 in µM for titrated hits; 0.95% of 220,000 active; M. tuberculosis H37Rv growth inhibition; higher % means a stronger effect;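 active = confirmed in a dose series; inconclusive = inhibition above 80% but not taken into the dose series; inactive = below 80% or under 30% at every dose of the series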;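 also: bacteria incubated seven days before Alamar blue readout; 0% = bacteria only wells and 100% = bacteria with antibiotic wells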
Arbovirus anti repeat: recorded beside Arbovirus anti, whose call it bears; inhibition, %; measured here: 10K subset replicate screen; many hits read low in the repeat;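 first of two repeat runs on a subset; 0% = infected and 100% = uninfected wells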
Starred values were filed as active, the others as inactive.

How did Cc1c(OCC(=O)N2CCN(c3ccccc3)CC2)ccc2c3c(c(=O)oc12)CCCC3 do in these assays?
Mtb betalactam: -3; RecA splice inh: 0.7

How did O=[N+]([O-])c1cc(C(F)(F)F)cc([N+](=O)[O-])c1NCCNC(=S)Nc1cccc(F)c1 do in these assays?
Mtb betalactam: 90; RecA splice inh: 8.6; Mtb H37Rv: 79%

How did Cc1ccccc1NC(=S)NC(NC(=O)CF)C(Cl)(Cl)Cl (centres undefined) do in these assays?
YopH PTP inh: -41; Arbovirus anti: 0; Mtb betalactam: 4; RecA splice inh: 1.2; Mtb H37Rv: -1%

How did Cc1nnc(NC(=O)C2CC(=O)N(Cc3ccccc3)C2)s1 (centres undefined) do in these assays?
Mtb betalactam: -12; RecA splice inh: -4.3

How did CC(C)N(c1ccccc1)c1ccc(NC(=O)COC(=O)CCN2C(=O)c3cccc([N+](=O)[O-])c3C2=O)cc1 do in these assays?
YopH PTP inh: -25; Arbovirus anti: -28; Mtb betalactam: 14; RecA splice inh: 3.5; Mtb H37Rv: 3%

How did NC(=S)n1[nH]c(-c2ccc([N+](=O)[O-])cc2)c(N=Nc2ccccc2[N+](=O)[O-])c1=O do in these assays?
Arbovirus anti: -10; Mtb H37Rv: -5%

What do the screens show for `COc1ccc(C2N(c3cc(Cl)ccc3OC)C(=O)C3CCCN32)cc1` (centres undefined)?
YopH PTP inh: -4; Arbovirus anti: -1; Mtb betalactam: -3; RecA splice inh: -1.2; Mtb H37Rv: 2%; Arbovirus anti repeat: -7

How did CCOC(=O)c1cnc2c(Cl)cccc2c1NCCN1CCOCC1 do in these assays?
YopH PTP inh: -12; Arbovirus anti: -1; Mtb betalactam: -2; RecA splice inh: 2.1; Mtb H37Rv: 5%

What do the screens show for `CCOc1cc(N2CCOCC2)c(OCC)cc1NC(=O)[C@H](C)N1C(=O)C2CC=CCC2C1=O` (some centres undefined)?
Arbovirus anti: 2; Mtb betalactam: -2; RecA splice inh: 0.3; Mtb H37Rv: 0%

What do the screens show for `COc1ccc(-c2n[nH]c(=S)n2-c2ccc(C)cc2C)cc1`?
Mtb betalactam: 6; RecA splice inh: 1.5

What do the screens show for `O=C1C2C(c3ccccc3)CC=CC2[C@H](c2ccoc2)N1Cc1ccccc1` (some centres undefined)?
Mtb betalactam: -2; RecA splice inh: 26; Mtb H37Rv: 0%

How did COCc1cc(=O)n2[nH]cc(-c3ccsc3)c2n1 do in these assays?
Mtb betalactam: 0; RecA splice inh: -2.3

How did COc1ccc(-c2c3c(=O)n(C)c(=O)n(C)c3cn2N2CCOCC2)cc1 do in these assays?
YopH PTP inh: -5; Arbovirus anti: -1; Mtb betalactam: -12; RecA splice inh: -2.1; Mtb H37Rv: 1%

Results for Cc1ccc(CCNc2ccccc2)c[n+]1[O-] ?
YopH PTP inh: -18; Arbovirus anti: 3; Mtb betalactam: -9; RecA splice inh: -1.3; Mtb H37Rv: -7%

What do the screens show for `Cc1nc2cc(O)ccc2n1C`?
YopH PTP inh: -42; Arbovirus anti: -4; Mtb betalactam: -4; Mtb H37Rv: -6%

Results for CCc1nc(NCCCCCO)c2nnn(Cc3ccccc3F)c2n1 ?
YopH PTP inh: -23; Arbovirus anti: 2; Mtb betalactam: -1; RecA splice inh: -4.5; Mtb H37Rv: 5%

Results for CC1(C)CC(=O)C2=C(C1)OC(N)=C([N+](=O)[O-])C2c1cccs1 (centres undefined) ?
YopH PTP inh: -39; Arbovirus anti: 17; Mtb betalactam: 2; RecA splice inh: 0.1; Mtb H37Rv: 4%

How did c1coc(CNc2ncnc3sc4c(c23)CCCCC4)c1 do in these assays?
YopH PTP inh: -46; Arbovirus anti: 8; Mtb betalactam: 30; RecA splice inh: 2.3; Mtb H37Rv: -8%

Results for CC(C)(C)NC(=O)NC(=O)COC(=O)c1ccc2c(c1)S(=O)(=O)N=C1CCCCCN12 ?
YopH PTP inh: -5; Arbovirus anti: -7; Mtb betalactam: 7; RecA splice inh: -3.5; Mtb H37Rv: 1%

How did COc1ccc(NC(=O)CSc2nc(C)cs2)cc1 do in these assays?
Arbovirus anti: 1; Mtb betalactam: -9; RecA splice inh: 0.5; Mtb H37Rv: -7%

Molecules from the list above that have a nitro group on carbon (four):
How did O=[N+]([O-])c1cc(C(F)(F)F)cc([N+](=O)[O-])c1NCCNC(=S)Nc1cccc(F)c1 do in these assays?
Mtb betalactam: 90; RecA splice inh: 8.6; Mtb H37Rv: 79%

How did CC(C)N(c1ccccc1)c1ccc(NC(=O)COC(=O)CCN2C(=O)c3cccc([N+](=O)[O-])c3C2=O)cc1 do in these assays?
YopH PTP inh: -25; Arbovirus anti: -28; Mtb betalactam: 14; RecA splice inh: 3.5; Mtb H37Rv: 3%

How did NC(=S)n1[nH]c(-c2ccc([N+](=O)[O-])cc2)c(N=Nc2ccccc2[N+](=O)[O-])c1=O do in these assays?
Arbovirus anti: -10; Mtb H37Rv: -5%

Results for CC1(C)CC(=O)C2=C(C1)OC(N)=C([N+](=O)[O-])C2c1cccs1 (centres undefined) ?
YopH PTP inh: -39; Arbovirus anti: 17; Mtb betalactam: 2; RecA splice inh: 0.1; Mtb H37Rv: 4%

Carrying on.
How did CCOc1ccc(N/C=C/C(=O)c2ccccc2)cc1 do in these assays?
Mtb betalactam: 96; RecA splice inh: -1.4

What do the screens show for `COc1ccccc1C(=O)N=C1SC2CS(=O)(=O)CC2N1c1ccccc1` (centres undefined)?
Mtb betalactam: -4; RecA splice inh: -0.4

How did Cc1ccc(C(C(=O)NCc2ccco2)N(C(=O)CNC(=O)c2cccs2)c2c(C)cccc2C)cc1 (centres undefined) do in these assays?
YopH PTP inh: -9; Arbovirus anti: -16; Mtb betalactam: -1; RecA splice inh: 2.6; Mtb H37Rv: 12%

Results for COc1ccc(-n2c(N)c(C#N)c3ccc([N+](=O)[O-])cc3c2=O)cc1 ?
YopH PTP inh: -8; Arbovirus anti: -5; Mtb betalactam: 0; RecA splice inh: -2.6; Mtb H37Rv: 4%

What do the screens show for `Cn1c(SCc2nc3ccccc3[nH]2)nnc1-c1cccnc1`?
YopH PTP inh: -56; Arbovirus anti: 0; Mtb betalactam: -20; RecA splice inh: 0.9; Mtb H37Rv: -8%; Arbovirus anti repeat: 3

How did Nc1ccc(Nc2nc(-c3ccncc3)cs2)cc1 do in these assays?
YopH PTP inh: -10; Arbovirus anti: -14; Mtb betalactam: -6; RecA splice inh: -1.0; Mtb H37Rv: 2%

How did CCOc1ccc(NC(=O)CN(C)C(=O)c2ccc3[nH]c4c(c3c2)CC(C)CC4)cc1OCC (centres undefined) do in these assays?
Mtb betalactam: -5; RecA splice inh: -3.6

Results for C/C(Sc1nnc(Cc2ccccc2)o1)=C(/O)c1ccccc1 ?
YopH PTP inh: -32; Arbovirus anti: -4; Mtb betalactam: -1; RecA splice inh: 2.0; Mtb H37Rv: -1%

How did Cc1cc(C)c(-c2csc(NC(=O)c3cc([N+](=O)[O-])ccc3N3CCOCC3)n2)c(C)c1 do in these assays?
YopH PTP inh: -27; Arbovirus anti: -4; Mtb betalactam: 79; RecA splice inh: 2.6; Mtb H37Rv: 6%

What do the screens show for `Cc1cc(=O)oc(C)c1C(=O)NCC(C)NC(=O)c1c(C)cc(=O)oc1C` (centres undefined)?
YopH PTP inh: -16; Arbovirus anti: -8; Mtb betalactam: 2; RecA splice inh: 1.2; Mtb H37Rv: 7%

What do the screens show for `Cc1ccccc1NC(=O)Cn1cnc2c(oc3nc4c(cc32)CCCC4)c1=O`?
Mtb betalactam: 0; RecA splice inh: -2.1

What do the screens show for `Cc1ccc(CNC(=O)C2CC(c3cccc(F)c3)=NO2)cc1` (centres undefined)?
Mtb betalactam: 9; RecA splice inh: -0.4; Mtb H37Rv: 9%

What do the screens show for `OCc1nc(CO)n(Cc2ccccc2)n1`?
YopH PTP inh: -22; Arbovirus anti: 2; Mtb betalactam: -4; RecA splice inh: -1.8; Mtb H37Rv: 4%

What do the screens show for `CCCCN1C(=O)C(=O)N(CC(=O)N2CCN(c3ccccc3)CC2)C1=O`?
Mtb betalactam: -5; RecA splice inh: 0.1

Results for CC1(c2ccccc2)NC(=O)N(CC(=O)Nc2cccc(C#N)c2)C1=O (centres undefined) ?
YopH PTP inh: -23; Arbovirus anti: 5; Mtb betalactam: -10; RecA splice inh: -0.9; Mtb H37Rv: 1%

Results for Cc1c(N=Cc2c(O)n(C)c(=O)c3ccccc23)c(=O)n(-c2ccccc2)n1C ?
YopH PTP inh: 43; Arbovirus anti: -26; Mtb betalactam: 3; Mtb H37Rv: -6%

How did CCOc1ccc(NC(=O)CN2CCN(CC(=O)Nc3ccc(C(N)=O)cc3)CC2)cc1 do in these assays?
Mtb betalactam: 9; RecA splice inh: -0.6

How did Cc1ccc(S(=O)(=O)Nc2cccc(Cl)c2)cc1NC(=O)c1cccnc1 do in these assays?
Arbovirus anti: 6; Mtb betalactam: -2; RecA splice inh: 0.6; Mtb H37Rv: 6%

Results for O=C(NC1CCCCC1)C(=O)c1c[nH]c2ccccc12 ?
Mtb betalactam: -14; RecA splice inh: -0.3

How did CCOc1cc(S(=O)(=O)N2CCCC2)ccc1Cl do in these assays?
YopH PTP inh: -21; Arbovirus anti: -3; Mtb betalactam: 5; RecA splice inh: 1.2; Mtb H37Rv: 0%

How did CCC(=O)N1CCc2cc(Br)cc(S(=O)(=O)CC(=O)OC)c21 do in these assays?
YopH PTP inh: -36; Arbovirus anti: 2; Mtb betalactam: 0; RecA splice inh: 0.4; Mtb H37Rv: -8%

What do the screens show for `Brc1ccccc1C1=Nn2c(nnc2-c2ccccc2)SC1`?
YopH PTP inh: -24; Arbovirus anti: 4; Mtb betalactam: -10; RecA splice inh: 0.1; Mtb H37Rv: 12%

What do the screens show for `Clc1ccc(OCc2nnnn2-c2ccccc2)cc1`?
YopH PTP inh: -27; Arbovirus anti: -4; Mtb betalactam: 6; RecA splice inh: 3.5; Mtb H37Rv: 10%

What do the screens show for `OC(COc1ccc(Cl)cc1Cl)CN1CCc2ccccc2C1` (centres undefined)?
Mtb betalactam: 12; RecA splice inh: -1.2

Results for CCN(Cc1ccccc1)C(=O)C1CCN(Cc2ccc(OC)c(OC)c2OC)CC1 ?
YopH PTP inh: -39; Arbovirus anti: -8; Mtb betalactam: 4; RecA splice inh: 0.7; Mtb H37Rv: 0%

Results for C=COCCNC(=O)C(=O)NCC(C)C ?
YopH PTP inh: -29; Mtb betalactam: -2; RecA splice inh: -1.2; Mtb H37Rv: -2%

What do the screens show for `NNC(=O)CN1CCCc2ccccc21`?
Arbovirus anti: 18; Mtb betalactam: -3; RecA splice inh: -0.1; Mtb H37Rv: 4%

How did CN(C)c1nc(Nc2ccc(Cl)c(Cl)c2)nc(N(C)C)n1 do in these assays?
Mtb betalactam: 7; RecA splice inh: 0.7

What do the screens show for `CCOc1ccc(OCC)c(NC(=O)C2CCN(c3ncccn3)CC2)c1`?
YopH PTP inh: -31; Arbovirus anti: -4; Mtb betalactam: 8; RecA splice inh: 0.5; Mtb H37Rv: 3%

What do the screens show for `Cc1cc(C)n(CCC(=O)N2c3ccccc3CC2C)n1` (centres undefined)?
Mtb betalactam: 3; RecA splice inh: -1.5

Results for O=c1c2cnn(-c3ccccc3)c2nnn1/N=C/c1cccnc1 ?
YopH PTP inh: 20; Arbovirus anti: -6; Mtb betalactam: -26; RecA splice inh: -3.3; Mtb H37Rv: -10%

What do the screens show for `CC(=O)NCCn1c(C)cc2ccccc21`?
YopH PTP inh: -21; Arbovirus anti: -5; Mtb betalactam: 3; RecA splice inh: -1.7; Mtb H37Rv: 1%; Arbovirus anti repeat: 4

How did Cc1nn(-c2ccc(Br)cc2)c(=O)c2ccccc12 do in these assays?
Mtb betalactam: -7; RecA splice inh: 0.8

How did CCOC(=O)N1CCN(c2cc(=O)n(C3CCCCC3)c(=O)[nH]2)CC1 do in these assays?
YopH PTP inh: 0; Arbovirus anti: 3; Mtb betalactam: -1; RecA splice inh: -4.0; Mtb H37Rv: 0%

How did CC(=O)Nc1nc(C)c(S(N)(=O)=O)s1 do in these assays?
YopH PTP inh: -36; Arbovirus anti: 1; Mtb betalactam: -7; RecA splice inh: -2.3

What do the screens show for `CCCC(=O)N(c1ccc(OCC)cc1)S(=O)(=O)c1ccc2c3c(cccc13)C(=O)N2C`?
Mtb betalactam: inconclusive; RecA splice inh: -31

What do the screens show for `O=C(N/N=C/c1cccs1)c1cc(-c2ccc(Cl)s2)[nH]n1`?
Mtb betalactam: 17; RecA splice inh: 0.6

What do the screens show for `Cc1ccc(Cl)cc1NC(=O)C1CC(=O)N(C(C)C)C1` (centres undefined)?
Mtb betalactam: 0; RecA splice inh: 0.0

What do the screens show for `COc1ccc2c(c1OC)CN(C)CCc1cc3c(cc1C(=O)C2)OCO3`?
Arbovirus anti: -2; Mtb betalactam: -2; RecA splice inh: 1.2; Mtb H37Rv: 3%

From PubChem

Not all compounds are listed. The share of hits here may be higher or lower than overall.
